# Compound activity: PubChem, National Center for Advancing Translational Sciences (NCATS)
# ClpP mod: qHTS Assay for Activators of ClpP; Potency, µM (doses to about 57.5 µM), without a hit: at the top dose activity change, negative = active; AID 651965, 2013; hit rate 1.9% among 340,000; purified B. subtilis ClpP, FRET peptide cleavage, 20 min; active = well fitted falling curve with a large enough effect; inconclusive = small, poorly fitted or top-dose-only effect; inactive = no such curve, though single readings can be large or run the other way; also: potency is read from the fitted curve at half-maximal effect; the source files actives as falling curves though it sought activators and does not explain the sign; nearly all actives have a fitted effect of over 65% in size; many hits overshoot -100%
# Target sequence (P80244 whole entry, looked up): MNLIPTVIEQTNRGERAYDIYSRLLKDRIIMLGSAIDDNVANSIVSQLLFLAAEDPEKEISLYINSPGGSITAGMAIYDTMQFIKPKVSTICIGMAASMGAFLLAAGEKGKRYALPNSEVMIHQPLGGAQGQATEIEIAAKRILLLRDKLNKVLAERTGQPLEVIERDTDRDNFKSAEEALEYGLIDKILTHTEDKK
#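 Purified B. subtilis ClpP, 10 microg/mL final in Tris/HCl pH8 with KCl, BSA, glycerol and Tween-20, cleaved an Abz/nitrotyrosine-quenched decapeptide. Fluorescence (ex 320, em 430) was read at 0 and 20 min at room temperature. Delta was normalized to 5.8 microM ADEP and DMSO/no-enzyme controls.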
# Menin-MLL FL inh: displaces fluorescein MLL peptide from human menin; Fluorescence polarization, fluorescein-MLL peptide displacement from menin; FP activity change, % at 61.4 µM; 290,000 tested, under 10 active; AID 1766; inconclusive = falling polarisation curve, or a change in total fluorescence; inactive = total fluorescence flat and polarisation flat or rising; no compound was filed as active; the % refers to the polarisation; negative = inhibition;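 also: % of control where 0% means no effect; inhibitors lower the polarisation; unlabelled MLL peptide was the positive control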
# D2 potentiator: human D2 receptor positive allosteric modulation | AID 624464 | potentiation, % (test concentration not listed) | DiscoveRx D2 beta-arrestin cells, luminescence, 90 min; 100% = 57 uM dopamine signal | hit rate 0.23% among 360,000 | P14416; active = potentiation of 50% or more; inconclusive = 30% to 50%; inactive = 30% or less;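 also: compound concentration not given in the record; tested on top of an EC20 dose of dopamine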
# Target sequence (P14416 whole entry, looked up): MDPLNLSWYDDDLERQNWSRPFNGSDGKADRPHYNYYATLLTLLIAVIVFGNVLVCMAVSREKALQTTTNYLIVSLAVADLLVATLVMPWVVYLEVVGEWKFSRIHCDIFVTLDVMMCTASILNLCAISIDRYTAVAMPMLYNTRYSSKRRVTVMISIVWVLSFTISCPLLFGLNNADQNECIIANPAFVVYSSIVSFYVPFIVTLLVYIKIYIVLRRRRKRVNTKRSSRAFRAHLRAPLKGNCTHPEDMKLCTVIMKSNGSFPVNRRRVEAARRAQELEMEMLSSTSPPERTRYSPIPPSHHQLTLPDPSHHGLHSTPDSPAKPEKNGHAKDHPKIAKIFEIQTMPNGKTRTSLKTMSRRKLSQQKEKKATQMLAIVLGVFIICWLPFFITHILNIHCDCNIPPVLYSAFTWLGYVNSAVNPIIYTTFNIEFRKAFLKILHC
#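 D2 cells co-treated with compound plus 50 nM dopamine (EC20) for 90 min at 37 deg C to detect potentiation. Beta-arrestin recruitment was read as enzyme-fragment luminescence after 1 h at ambient temperature. Full response was set by 57 uM dopamine.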
# gsp agonist: activates gsp, the McCune-Albright syndrome mutation; gsp mutant cells, cAMP HTRF, 30 min; control for the full effect not named in the record; Potency, µM (highest dose often 76.9 µM), for the others: at the highest dose activation (cAMP increase), actives largely listed as activators; hit rate 0.13% among 340,000; active = well fitted activation curve with a large enough effect; inconclusive = small, poorly fitted or top-dose-only effect, or another doubt; inactive = no such curve, though single readings can be large or run the other way; cell line not stated here;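 also: phosphodiesterase inhibitor Ro 20-1724 added with compounds to block cAMP breakdown; potency is read from the fitted curve at half-maximal effect; nearly all actives have a fitted effect of over 60% in size; about a fifth of the inactives were tested at one dose only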
#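 Cells in DMEM/10% FBS with G418 were pretreated with compounds in DMSO plus […] (300 uM stock) for 30 min at 37C. cAMP was measured by HTRF (cAMP-d2 plus anti-cAMP antibody-K) after 30 min at room temperature.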
# gsp antag: antagonizes gsp, the McCune-Albright syndrome mutation; Potency, µM (highest dose often 76.9 µM), inactives show at the top dose activity change, negative = inhibition, hits mostly inhibitors; hit rate 0.4% among 340,000; AID 624288; gsp-mutant cells, cAMP HTRF, 30 min; control for the full effect not named in the record; active = falling curve of any shape with a large fitted effect; inconclusive = falling curve, mostly with a smaller effect; inactive = flat or rising curve; cell line not stated here;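 also: intracellular cAMP measured with PDE inhibitor Ro 20-1724 present during compound exposure; potency is read from the fitted curve at half-maximal effect; % is scaled to controls: 0 for no effect and ±100 for the full control effect; nearly all actives have a fitted effect of over 65% in size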
#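 HTRF cAMP measurement after 30 min RT detection following 30 min, 37C compound treatment alongside […] (added as 300 uM solution) in G418-selected cells seeded at 2000/well and grown 16–24 h.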
# TRPV1 PAM: human TRPV1 potentiation; Q8NER1; TRPV1-expressing cells, Fluo-8 calcium influx, capsaicin EC20 potentiation; host cell line not named in the record; control for the full effect not named in the record; potentiation, % at 8.33 µM; hit rate 0.02% among 320,000; active means potentiation above 80%; inconclusive means 30% to 80%; inactive means below 30%; also: 0% is about no effect
#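 Fluo-8 calcium influx in TRPV1-expressing cells, kinetic read (ex 480/em 520 nm). Compound added and read 3 min for agonist activity, followed by capsaicin at EC20 final and 2 min further read for enhancement.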
# Sfp inh: inhibitors of Bacillus subtilis Sfp phosphopantetheinyl transferase | Q9F4F7 | Biochemical Sfp PPTase activity, qHTS | Potency, µM, inactives show max response, negative = inhibition, actives largely listed as inhibitors | hit rate 3.5% among 310,000 | AID 1490; active = well fitted inhibition curve with a large enough effect; inconclusive = small, poorly fitted or top-dose-only effect, or another doubt; inactive = no such curve, though single readings can be large or run the other way;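 also: the enzyme is Sfp with the accession as filed and its product quenches rhodamine fluorescence; potency is read from the fitted curve at half-maximal effect; 0% = enzyme reaction without inhibitor and -100% = no enzyme wells; top concentration of the series not given in the record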
#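 Fluorescence-quenching assay: 15 nM Sfp-PPTase preincubated 15 min at room temperature with compound, then 5 uM rhodamine-CoA and 12.5 uM BHQ-2-labelled YbbR peptide added. Fluorescence (ex 525/em 598 nm) read at start and after 30 min; difference gives rate.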
# Starred values were filed as active, the others as inactive; ? = inconclusive; / = not tested or not shown; [ ] = dose if it differs, or a comment.
SMILES,ClpP mod,Menin-MLL FL inh,D2 potentiator,gsp agonist,gsp antag,TRPV1 PAM,Sfp inh
COc1ccc(C2C(C#N)=C(N)Oc3cc(C)n(Cc4ccncc4)c(=O)c32)cc1 (stereo unspecified),-5.3%,12,17,-32%[inhibitor],-4%,?,3%
C=CC[N+](C)(C)CCN1C(=O)C2C(c3ccccc3)C=CC(c3ccccc3)C2C1=O (stereo unspecified),/,-6.5,-5,-21%,13%,-5,12%
O=Cc1cn(CC(=O)N2CCOCC2)c2ccccc12,-2.4%,6.1,1,-27%,-3%,-10,-11%
COC(=O)c1cc(NC2c3ncccc3C(=O)N2Cc2ccccc2)cc(C(=O)OC)c1 (stereo unspecified),-14%,0.9,-9,-8%,-2%,11,14%
O=C(COc1ccc([N+](=O)[O-])cc1)N(Cc1ccccc1)Cc1ccccc1,32µM*,1.0,-20,-46%[inhibitor],-19%,7,27%
O=C(/C=C/c1cccc([N+](=O)[O-])c1)NCCSc1ccccc1,-4.8%,-0.3,4,?,-18%,-8,?
CCOc1ccc(NC(=O)N2CCC(C(=O)c3ccc(F)cc3)CC2)cc1,-0.6%,-3.1,-7,7%,-5%,23,8%
COc1ccc(-n2c(=S)[nH]c3cc(C(=O)NCCCN4CCCC4=O)ccc3c2=O)cc1OC,-0.1%,-0.4,-16,18%,-7%,0,?
COc1ccc(/C=C/c2c(-c3cccc(C)c3)oc3ccc(-c4ccc5c(c4)OCO5)cc23)cc1,4.6%,1.4,-6,18%,5%,13,1%
CCCC1CCC(=NNC(=O)OC(C)(C)C)CC1 (stereo unspecified),0.4%,8.0,1,?,8%,-7,10%
CCS(=O)(=O)C1=NSC2=NC(=O)/C(=C\c3cc(C)n(-c4cccc(OC)c4)c3C)C(=N)N21,0.2%,16,-1,-26%,-7%,-4,13%
CC(NC(=O)COc1ccccc1)C(=O)NCc1ccc(S(N)(=O)=O)cc1 (stereo unspecified),/,/,-1,22%,6%,/,/
CC(=O)c1nn(-c2cccc(C)c2)cc1C(=O)c1cccc(Br)c1,/,/,-2,-15%,3%,/,/
COc1ccc(CCC(C)NCC2CCCCC2)cc1 (stereo unspecified),-3.5%,-0.9,-33,?,9%,3,23%
COc1ccc(C2/C(=C(/O)c3ccc(Br)cc3)C(=O)C(=O)N2C)cc1OC (stereo unspecified),-1.2%,1.2,-25,0%,2%,9,-1%
CCc1ccc(NC(=O)C(=O)N/N=C(\C)CC(=O)Nc2ccc(OC)cc2)cc1,1.3%,0.5,-5,-70%[inhibitor],5%,-19,4%
Cc1[nH]c2ccc(C(=O)NCC(C)(C)N3CCOCC3)cc2c1C,/,0.7,-15,9%[15.4 µM],-13%,2,0%
CCOC(=O)c1[nH]nc(N)c1NC(=O)c1ccc(Cl)cc1Cl,-0.8%,-4.2,-1,0%,8%,-18,15%
CC(=O)c1ccc(OCC(=O)OCc2cc(-c3ccco3)on2)cc1,1.7%,/,-12,-19%,-11%,-18,/
O=C1COC(c2ccccc2)=CN1Cc1ccccc1,-0.7%,/,-9,16%,-9%,-14,/
O=C(COC(=O)c1cc(S(=O)(=O)N2CCCCC2)ccc1N1CCOCC1)NC1CCCCC1,0.7%,1.3,-9,19%,1%,13,7%
COc1ccc(-c2nnn(CC(=O)N(CCCN3CCOCC3)C(C(=O)NC3CCCC3)c3ccc(C)o3)n2)cc1 (stereo unspecified),/,0.9,-14,-16%,-5%,-8,9%
O=C(NCCc1ccccc1)C(c1cccs1)N(C(=O)c1csnn1)C1CC1 (stereo unspecified),-1.3%,4.9,0,?,-5%,6,5%
CC(=O)N1c2ccc(S(=O)(=O)N(C)CC(=O)NC3CCCC3)cc2CC1C (stereo unspecified),-0.3%,0.4,-3,8%,8%,-3,12%
O=C(O)/C=C/C(=O)NCCc1ccc(Cl)cc1,1.1%,4.7,-8,9%,7%,5,21%

# Entries of single compounds, looked up by structure. Values in the order: ClpP mod, Menin-MLL FL inh, D2 potentiator, gsp agonist, gsp antag, TRPV1 PAM, Sfp inh
# `COc1ccc(/C=C/c2c(-c3cccc(C)c3)oc3ccc(-c4ccc5c(c4)OCO5)cc23)cc1` is entered as 4.6%, 1.4, -6, 18%, 5%, 13, 1%
# `CC(=O)c1nn(-c2cccc(C)c2)cc1C(=O)c1cccc(Br)c1` is entered as /, /, -2, -15%, 3%, /, /

# The list continues:
SMILES,ClpP mod,Menin-MLL FL inh,D2 potentiator,gsp agonist,gsp antag,TRPV1 PAM,Sfp inh
COCCn1c(SCC(=O)Nc2ccc3[nH]c(=O)[nH]c3c2)nc2ccccc2c1=O,/,-0.8,2,-12%[15.4 µM],4%,14,?
O=C(COC(=O)c1ccc2ncsc2c1)Nc1ncc(Cl)cc1Cl,-0.3%,5.2,-19,19%,12%,15,-2%
CSc1nc2c(c(=O)n1-c1ccc(F)cc1)SCC2,0.8%,4.9,-8,-19%,-3%,-92,3%
COc1ccc(OCc2cc(C(=O)N3CCCC(O)C3)no2)c2ccccc12 (stereo unspecified),-9.4%,/,?,13%,-1%,4,-2%
COc1ccc(-c2nc(/C=C3\C(C)=Nc4ccccc43)c(O)o2)cc1,/,?,-6,-6%[15.4 µM],-10%,4,?
COc1ccc(C2CC(c3cccs3)Nc3nnnn32)cc1 (stereo unspecified),/,-4.8,6,-11%[15.4 µM],-8%,-5,12%
CCc1cccc(C)c1NC(=O)CSc1n[nH]c(N)n1,-0.3%,/,0,-25%,-4%,/,/
Cc1ccccc1-c1nnc(-c2ccccc2)o1,?,-3.4,2,-38%,-17%,-9,?
CCC1Oc2ccccc2N(CC(=O)NCCCN2CCCCC2CC)C1=O (stereo unspecified),-0.2%,-2.2,0,-25%,4%,?,22%
CC(=O)N(C(C)=O)c1ncc2c([nH]c3ccccc32)c1C#N,8.0%,-7.6,-4,32%,13%,-10,-8%
CCCCC(O)(CCN1CCOCC1)c1ccc(Cl)cc1 (stereo unspecified),1.5%,-2.3,-14,9%,-8%,25,-5%
COc1ccccc1C(=O)NNC(=O)c1sccc1-n1cccc1,0.4%,-2.1,-4,4%,14%,6,17%
Nc1nc2n(n1)C(c1cccc(Cl)c1)CC(c1ccc(F)cc1)N2 (stereo unspecified),0.2%,-0.8,-2,23%,-2%,-13,12%
C=CCn1c(SC2CCOC2=O)nc2sc(C)c(C)c2c1=O (stereo unspecified),-0.3%,1.9,18,-16%,1%,21,1%
COc1ccc(C2(C)NC(=O)N(CC(=O)NCC(=O)Nc3ccc(F)c(F)c3F)C2=O)cc1OC (stereo unspecified),/,/,-8,-1%,7%,/,/
COc1ccc2ccccc2c1C1CC(=O)N2CN(C)CSC2=C1C#N (stereo unspecified),-1.2%,?,?,-3%,-26%,12,7.9µM*
Cc1cccc2c1CC(C)(C)N=C2C1=C(O)CCCC1=O,-0.9%,1.3,-13,-1%,-1%[15.4 µM],-7,0%
O=C(c1cc([N+](=O)[O-])ccc1N1CCOCC1)N1CCN(S(=O)(=O)c2cc(Cl)ccc2Cl)CC1,-1.4%,/,-8,-36%[inhibitor],3%,0,/
O=C(COC(=O)CN1C(=O)c2ccccc2C1=O)Nc1ccc(S(=O)(=O)N2CCCC2)cc1,-2.7%,2.5,14,-27%,-25%,1,8%
COc1ccc(NC(=O)Cc2ccsc2)c(OC)c1,/,15,-5,5%,3%,13,10%
CS(=O)(=O)c1ccc(C(=O)N2CCc3ccccc3C2)cc1,/,-1.1,-3,4%[15.4 µM],-4%,-3,21%
COc1ccc(CCN2CC(C(=O)NC3CCOCC3)CCC2=O)cc1 (stereo unspecified),-0.8%,-0.7,7,18%,13%,-6,17%
CCc1cc(C(=O)OC)c(NC(=O)CC2SC(N)=NC2=O)s1 (stereo unspecified),/,-1.4,-3,-19%[15.4 µM],6%,5,-21%
O=C(NCCc1c[nH]c2ccccc12)C(=O)Nc1cc2c3c(c1)CC(=O)N3CCC2,1.3%,/,-19,-2%[15.4 µM],-11%,-17,/
CCCCNC(=O)N1CCN(S(C)(=O)=O)CC1,/,-5.6,3,-11%[15.4 µM],9%,-2,5%

# The list continues:
SMILES,ClpP mod,Menin-MLL FL inh,D2 potentiator,gsp agonist,gsp antag,TRPV1 PAM,Sfp inh
COc1ccc(NC(=O)/C(N=Nc2cccc(S(=O)(=O)Nc3ccc(SC(F)F)cc3)c2)=C(\C)O)cc1,0.9%,/,-1,-27%,1%,/,/
COc1ccc(-c2cc(C(=O)O)c3ccccc3n2)c(OC)c1,-13%,5.9,-4,16%,13%,8,5%
COc1ccc(NS(=O)(=O)c2cc([N+](=O)[O-])ccc2N/N=C\c2c(C)[nH]c3ccccc23)cc1,-0.5%,8.7,-28,-9%,12%,3,17%
Cc1cc(NC(=O)Nc2ccccc2F)ccc1Br,/,0.9,-7,12%,-16%,-13,4%
O=C(O)C1CCC(N2C(=O)C3CCCCC3C2=O)CC1 (stereo unspecified),-2.5%,3.5,-18,0%,0%,-1,19%
CC(=O)OCC1=C(C(=O)O)N2C(=O)C(NC(=O)CCn3nc(C(F)(F)F)c(Br)c3C3CC3)C2SC1 (stereo unspecified),/,1.7,-22,14%[15.4 µM],/,-8,-3%
O=C(Nc1ccc2[nH]c(=O)[nH]c2c1)c1cc(F)c(F)cc1Cl,/,-0.7,-2,-4%[15.4 µM],1%,-1,5%
Cc1nnc(NC(=O)CSc2nc(C(C)C)nc3ccccc23)s1,3.0%,4.0,-5,?,4%,8,4%
Cc1n[nH]c(=O)nc1NCc1ccco1,-3.8%,1.0,0,19%,8%,/,-19%
COc1ccc(-c2cc(=O)n(-c3nc4ccccc4[nH]3)[nH]2)cc1,19%,-0.4,6,-41%[inhibitor],-2%,15,2%
O=C(c1cnc2n(c1=O)CCS2)N1CCN(c2ccc([N+](=O)[O-])cc2)CC1,2.5%,7.7,1,19%,-14%,0,8%
CCC1(c2ccc(F)cc2)NC(=O)N(CC(=O)Nc2cccnc2Cl)C1=O (stereo unspecified),/,/,-6,-2%[15.4 µM],8%,12,/
COC(=O)c1ccccc1NC(=O)CN1CCC(n2nnc3cc(F)ccc32)CC1,-1.5%,1.1,-25,4%,12%,-14,11%
CC(NC(=O)c1ccc2c(c1)OCO2)C(c1cccs1)N1CCOCC1 (stereo unspecified),-0.6%,1.0,-9,3%,0%,3,-8%
